Arbovirus inh: arbovirus infection inhibition | inhibition, % at 10 µM | AID 1251 | arbovirus infection cell-based antiviral screen | actives 0.37% (n = 200,000);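 active means inhibition from about 30%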;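 further: bluetongue infection of BSR cells; cell survival read as ATP light after 72 h; 0% = infected wells without compound and 100% = uninfected wells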
YopH inh: inhibitors of Yersinia enterocolitica YopH tyrosine phosphatase | inhibition, %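 (about 10 µM by stock and volumes)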 | fluorescence Ex485/Em525 | actives 0.16% (n = 140,000);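 active means inhibition of 50% or more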;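 further: controls were vehicle for no effect and minimum signal wells for full effect; inactives centre near -20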
Mtb growth: M. tuberculosis H37Rv growth inhibitors, H37Rv strain (AID 1626) | M. tuberculosis H37Rv growth inhibition; higher % means a stronger effect | one-dose inhibition, % at 10 µM; IC50 in µM for titrated hits | actives 0.95% (n = 220,000);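 active means confirmed in a dose series; inconclusive means inhibition above 80% but not taken into the dose series; inactive means below 80% or under 30% at every dose of the series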;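 further: bacteria incubated seven days before Alamar blue readout; 0% = bacteria only wells and 100% = bacteria with antibiotic wells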
Mtb betalactam: beta-lactam sensitization of Mtb H37Rv | M. tuberculosis H37Rv growth with meropenem, percent inhibition; hits of this screen are not shown here | inhibition, % at 25 µM | actives 0.27% (n = 330,000);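 active means about 74% or more and at least 40 points above the plate without the antibiotic, then above 30% in a dose series; inconclusive means first-round hits that could not be retested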;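 further: growth measured after seven days incubation then overnight dye step; 0% = bacteria only wells and 100% = bacteria with antibiotic; twin plates without the antibiotic show which effects depend on it; some results filed as inactive read as strong as hits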
RecA intein inh: blocks M. tuberculosis RecA intein splicing; AID 2221; inhibition, %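 (about 9 µM by stock and volumes)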; actives 0.75% (n = 290,000); cell-free RecA intein splicing, fluorescence; in the data active means inhibition above about 30%; inconclusive means no clear call, values can overlap the other calls;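 further: 0% = vehicle wells and 100% = reference inhibitor control wells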
Target sequence (P9WHJ3 whole entry, looked up): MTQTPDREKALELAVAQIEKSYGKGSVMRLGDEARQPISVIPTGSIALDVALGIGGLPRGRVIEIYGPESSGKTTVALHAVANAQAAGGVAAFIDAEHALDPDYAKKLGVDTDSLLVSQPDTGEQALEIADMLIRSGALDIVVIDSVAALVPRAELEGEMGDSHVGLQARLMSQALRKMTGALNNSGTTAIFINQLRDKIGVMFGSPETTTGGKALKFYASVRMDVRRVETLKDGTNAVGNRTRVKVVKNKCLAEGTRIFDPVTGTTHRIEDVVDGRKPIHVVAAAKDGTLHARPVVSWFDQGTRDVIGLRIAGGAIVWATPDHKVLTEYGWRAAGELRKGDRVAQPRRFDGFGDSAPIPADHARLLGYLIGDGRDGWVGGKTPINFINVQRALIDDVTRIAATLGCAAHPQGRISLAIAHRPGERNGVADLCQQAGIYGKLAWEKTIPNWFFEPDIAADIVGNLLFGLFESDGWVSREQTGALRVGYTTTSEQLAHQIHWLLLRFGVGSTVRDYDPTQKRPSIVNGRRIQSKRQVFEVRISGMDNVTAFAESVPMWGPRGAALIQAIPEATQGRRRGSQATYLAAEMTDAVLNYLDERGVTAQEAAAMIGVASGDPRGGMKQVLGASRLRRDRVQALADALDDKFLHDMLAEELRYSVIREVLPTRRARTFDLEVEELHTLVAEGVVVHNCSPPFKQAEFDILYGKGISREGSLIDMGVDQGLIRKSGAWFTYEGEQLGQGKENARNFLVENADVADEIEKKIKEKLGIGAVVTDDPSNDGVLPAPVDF
Arbovirus inh repeat: second read-out of Arbovirus inh, no call of its own (marks repeat the call); inhibition, %; measured here: 10K subset replicate screen; many hits read low in the repeat;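 first of two repeat runs on a subset; 0% = infected and 100% = uninfected wells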
Starred values were filed as active, the others as inactive; ? = inconclusive; · = not tested or not shown. Not all compounds are listed; the hit share may differ from the screen's.

SMILES	Arbovirus inh	YopH inh	Mtb growth	Mtb betalactam	RecA intein inh	others
CN(C)/C=N/C(=S)Nc1ccc(F)cc1	0	2	-6%	-16	2.4
CC(C)(C)C(=O)Oc1cc(N)n(S(=O)(=O)c2ccccc2)n1	6	-30	·	-8	2.1
CCOC(=O)c1c(NC(=O)c2ccoc2C)sc(C(=O)N(C)C)c1C	6	5	-8%	2	0.9
Cc1cc(N2CCCC2)nc2ccc(NC(=S)NCCCOC(C)C)cc12	-17	·	2%	0	-6.4
COc1ccc(CCNC(=O)c2nnn(CC(=O)Nc3ccccc3C)c2N)cc1OC	9	-29	-12%	-2	3.7
COc1ccccc1OCC(=O)NNC(=O)CCCC(=O)NNC(=O)COc1ccccc1OC	·	·	·	2	-2.8
COc1ccc(CNC(=O)CN2C(=O)COc3ccc(S(=O)(=O)N4CCCCC4)cc32)cc1	·	·	·	3	-1.6
Cc1cc(C)n(CC(C)NCc2c(C(=O)N3CCOCC3)nc3c(C)cccn23)n1 (stereo not drawn)	·	·	1%	-6	-0.9
O=C(COC(=O)C1(c2ccc(F)cc2)CCCC1)NC1CC1	1	-21	1%	-7	12
COc1ccc(N=CC2=C(O)CC(C)(C)CC2=O)cc1OC	·	·	6%	13	·
c1ccc(-c2noc(CC3CCCCC3)n2)cc1	-2	·	2%	0	3.0
Cc1ccc(CC2C(=O)N(c3ccccc3)C(=O)C2C)cc1 (stereo not drawn)	·	·	·	-1	-2.8
COC(=O)[C@@H]1C[C@H]2CC[C@H](O)C[C@H]2N1Cc1ccc(C(C)(C)C)cc1	·	·	-7%	-7	-3.2
CCn1c(=O)cc(SCC(=O)Nc2ccc3c(c2)OCCO3)c2ccccc21	21	-42	-9%	12	2.8
CCc1cc2c(N[C@@H](Cc3c[nH]c4ccccc34)C(=O)O)ncnc2s1	-6	-26	-5%	2	-3.4
CCN1CCN(Cc2ccc(C(=O)Nc3ccc(C)c(NCc4cnc(NC(=O)OC)cn4)c3)cc2C(F)(F)F)CC1	·	·	·	67	-0.7
CCN(CC)C(=O)CSc1nnc(COc2ccccc2)n1N	0	·	-23%	-6	1.1
CCOc1ccc(C(=O)N/N=C/c2ccc(-c3ccc(S(=O)(=O)Nc4ncccn4)cc3)o2)cc1	1	-10	?	100	2.2
CC(=O)N1c2ccc(S(=O)(=O)N3CCC(C(=O)NCc4ccc(N(C)C)cc4)CC3)cc2CC1C (stereo not drawn)	·	·	·	0	1.2
O=c1[nH]c(NNC(=S)NCc2ccccc2)nc2c1C1(CCCCC1)Cc1ccccc1-2	-41	-1	9%	-1	7.2
COc1ccc(NC(=O)C2CC(=O)n3c(nc4ccccc43)N2)cc1 (stereo not drawn)	·	·	·	-3	3.6
Cc1cc(C(=O)N/N=C/c2ccc(-c3ccc([N+](=O)[O-])cc3C)o2)n[nH]1	·	·	·	5	-0.9
Nc1ccc(-c2nc3ccccc3[nH]2)cc1	1	-30	-9%	-4	·	Arbovirus inh repeat=-5
CCn1c(SCc2nc(-c3cccs3)no2)nnc1-c1c[nH]c2ccccc12	-11	1	11%	·	5.0
Cc1nn(-c2ccccc2)c2sc(C(=O)OCn3nnc4ccccc4c3=O)cc12	-9	-26	?	98	-4.6
CC(=O)Nc1ccc(N(C(=O)c2cnccn2)C(C(=O)NC2CCCCC2)c2ccc(F)cc2)cc1 (stereo not drawn)	·	·	·	-1	0.6
Brc1cccc(-c2nnc(SCc3nc4ccccc4[nH]3)o2)c1	-6	1	·	-3	1.7
O=C(NCCc1cccs1)C1CCC(=O)N(CCc2cccc(F)c2)C1 (stereo not drawn)	·	·	·	-2	-1.7
CCOC(=O)CN(C)Cc1cn[nH]c1-c1ccc2cc(OC)ccc2c1	·	·	·	-9	-1.1
CCOC(=O)C1C(=O)C=C(c2ccc(OC)cc2)CC1c1ccco1 (stereo not drawn)	-4	-83	3%	5	4.6
C=CCNC(=S)NNC(=O)C(CC(C)C)CC(C)O (stereo not drawn)	·	·	2%	5	-1.5
CCCN(C(=O)COC(=O)Cn1c(=O)oc2ccccc21)c1c(N)n(Cc2ccccc2)c(=O)[nH]c1=O	·	·	·	-1	1.5
COc1ccc(CC(=O)Oc2cc(C)ccc2C)cc1	·	·	·	-2	-0.1
Cc1ccc(/C=C2\SC(N)=NC2=O)s1	2	-6	5%	9	-3.3
CCOC(=O)/C(=C\c1ccc(OC(F)F)cc1)C1=Nn2c(nnc2-c2ccc(Cl)cc2)SC1	-35	-17	7%	7	2.2
C/C(=N\Nc1ccc(C(=O)O)cc1)c1ccc(Cl)s1	·	·	·	15	-7.6
O=C(CN1CCN(c2ccccn2)CC1)Nc1ccc(Br)cc1	·	·	·	5	-5.0
COC(=O)c1ccc(N2CCN(S(=O)(=O)c3c(C)cc(C)cc3C)CC2)c([N+](=O)[O-])c1	8	-9	·	?	1.5
Cc1noc(C)c1S(=O)(=O)N1CCC2(CC1)OCCO2	3	-22	-9%	-7	-1.6
CC1=NNC(=O)/C1=C\c1cn(-c2ccccc2)nc1-c1cccs1	-32	-16	59%	98	97*

An excerpt of the results above, for reference:
SMILES	Arbovirus inh	YopH inh	Mtb growth	Mtb betalactam	RecA intein inh	others
CC(=O)Nc1ccc(N(C(=O)c2cnccn2)C(C(=O)NC2CCCCC2)c2ccc(F)cc2)cc1 (stereo not drawn)	·	·	·	-1	0.6
Brc1cccc(-c2nnc(SCc3nc4ccccc4[nH]3)o2)c1	-6	1	·	-3	1.7
O=C(NCCc1cccs1)C1CCC(=O)N(CCc2cccc(F)c2)C1 (stereo not drawn)	·	·	·	-2	-1.7
CCOC(=O)CN(C)Cc1cn[nH]c1-c1ccc2cc(OC)ccc2c1	·	·	·	-9	-1.1
CCOC(=O)C1C(=O)C=C(c2ccc(OC)cc2)CC1c1ccco1 (stereo not drawn)	-4	-83	3%	5	4.6
C=CCNC(=S)NNC(=O)C(CC(C)C)CC(C)O (stereo not drawn)	·	·	2%	5	-1.5
CCCN(C(=O)COC(=O)Cn1c(=O)oc2ccccc21)c1c(N)n(Cc2ccccc2)c(=O)[nH]c1=O	·	·	·	-1	1.5
COc1ccc(CC(=O)Oc2cc(C)ccc2C)cc1	·	·	·	-2	-0.1
Cc1ccc(/C=C2\SC(N)=NC2=O)s1	2	-6	5%	9	-3.3
CCOC(=O)/C(=C\c1ccc(OC(F)F)cc1)C1=Nn2c(nnc2-c2ccc(Cl)cc2)SC1	-35	-17	7%	7	2.2
C/C(=N\Nc1ccc(C(=O)O)cc1)c1ccc(Cl)s1	·	·	·	15	-7.6
O=C(CN1CCN(c2ccccn2)CC1)Nc1ccc(Br)cc1	·	·	·	5	-5.0
COC(=O)c1ccc(N2CCN(S(=O)(=O)c3c(C)cc(C)cc3C)CC2)c([N+](=O)[O-])c1	8	-9	·	?	1.5
Cc1noc(C)c1S(=O)(=O)N1CCC2(CC1)OCCO2	3	-22	-9%	-7	-1.6
CC1=NNC(=O)/C1=C\c1cn(-c2ccccc2)nc1-c1cccs1	-32	-16	59%	98	97*

Remaining list, next part:
SMILES	Arbovirus inh	YopH inh	Mtb growth	Mtb betalactam	RecA intein inh	others
O=C(CCC(F)(F)F)N1CCCC(N2CCN(c3cccc(Cl)c3)CC2)C1 (stereo not drawn)	·	·	·	1	-1.3
Cc1ccc(S(=O)(=O)Cc2ccc(C(=O)N3CCC4(CC3)OCCO4)o2)cc1	4	24	-7%	2	1.7
CCc1cccc(C)c1NC(=O)CO/N=C(\C)c1cc2ccccc2o1	-1	-20	6%	4	-0.2
Cc1ccc(CON=C2CCN(c3ncc(C(F)(F)F)cc3Cl)CC2)cc1	9	-31	9%	52	5.9
C/C(=C\c1ccccc1)CN1CCN(c2ccccc2F)CC1	11	4	-2%	4	4.4
Cc1ccc(N2CC(C(=O)OCC(=O)NNC(=O)c3ccccc3)CC2=O)cc1 (stereo not drawn)	·	·	·	-8	-5.6
Cc1ccc(NC(=O)CN(C)CC(=O)Nc2ccc(N3CCOCC3)cc2)c([N+](=O)[O-])c1	-2	0	-4%	-2	-3.0
Cc1ccc(C)c(NC(=O)CCC(=O)NNC(=O)c2cccs2)c1	6	-35	-6%	-6	-1.0
CN1CCN(C(=O)c2ccc3c(=O)n(Cc4ccco4)c(=S)[nH]c3c2)CC1	-3	32	-5%	-2	0.4
CCN(CCNC(=O)c1cc(C)nn1-c1ccccc1)c1ccccc1	-8	-17	11%	-6	-0.8
Cc1cc(-c2csc(NC(=O)c3ccc(S(=O)(=O)N(C)C)cc3)n2)c(C)n1-c1ccccc1	7	10	7%	3	2.5
CN1CCN(NC(=O)CN2C(=O)/C(=C/c3ccccc3F)SC2=S)CC1	-5	-14	-4%	-4	·
Brc1ccc(CSc2ccc3nnc(-c4ccccn4)n3n2)cc1	0	·	5%	0	8.1
Cc1ccc(S(=O)(=O)N2CCC(C(N)=O)CC2)c(C)c1C	-6	-17	1%	3	-0.3
CCC1Sc2ccc(S(=O)(=O)CCC(=O)Nc3ccc(OC(F)(F)F)cc3)cc2NC1=O (stereo not drawn)	·	·	·	1	0.6
Cc1ccc(N2CC(C(=O)NCc3cccs3)CC2=O)cc1C (stereo not drawn)	6	-29	1%	-19	3.3
Nc1ccccc1-c1nnc(-c2ccc(-c3ccccc3)cc2)o1	-8	-1	·	38	-5.7
COc1ccc(CC(=O)NCCCc2ccccc2)cc1OC	·	·	·	-4	0.7
C=C(Cl)COc1ccc2c(CCC)cc(=O)oc2c1	-6	-3	16%	6	3.2
Cc1ccc(OCC(=O)c2cc(C)n(Cc3ccco3)c2C)c([N+](=O)[O-])n1	·	·	4%	-4	-1.4
CN(CC(=O)Nc1ccc(N2CCOCC2)cc1)C(=O)CCc1ccccc1Cl	·	·	·	5	0.5
CCOc1cc(-c2sc(Nc3ccccc3)n[n+]2-c2ccc(F)cc2)ccc1OC	·	·	·	-15	-0.6
CCC1CCc2c(sc(NC(=O)CSc3nc(-c4ccco4)cc(C(F)(F)F)n3)c2C#N)C1 (stereo not drawn)	1	-8	-7%	-2	-4.9
CC(C)(C)Nc1nc2nonc2nc1NC(C)(C)C	5	-5	5%	13	2.4
COc1ccccc1N1C(=O)CC(Sc2ccccc2N)C1=O (stereo not drawn)	·	·	-17%	3	0.4
CC(C)[C@H](NC(=O)c1ccccc1F)C(=O)NCc1ccc(S(N)(=O)=O)cc1	·	·	·	-6	0.1
Cn1cnnc1SCC(=O)NC1CCCN(Cc2ccccc2F)C1 (stereo not drawn)	·	·	·	1	-1.0
Cc1nc2nc(CCc3ccccc3)nn2c(C)c1Cl	8	3	-2%	-12	0.0
COc1ccc(NC(=O)NCCc2c[nH]c3ccccc23)c(OC)c1	·	·	·	2	-3.6
O=[N+]([O-])c1ccc(NCc2ccccn2)nc1	1	-6	4%	0	-1.3
O=C(Cn1cnc2ccccc2c1=O)c1ccc(OC(F)F)cc1	·	·	·	0	-0.7
Cc1ccc(S(=O)(=O)Nc2cccc3c2CCCC3)cc1	0	-26	3%	3	9.8
OCC1CCCN(c2nc(CN3CCCCC3)nc3scc(-c4ccccc4)c23)C1 (stereo not drawn)	-1	-2	2%	7	3.8
COc1cccc(/C=C/C(=O)NCc2cn3cc(Cl)ccc3n2)c1OC	-4	·	1%	1	0.0
CCOc1ccc(N(C(=O)c2cnsn2)C(C(=O)NC2CCCCC2)c2ccncc2)cc1 (stereo not drawn)	3	-13	30%	5	-2.8
CCOC(=O)/C(=N/Nc1ccccc1)Sc1nnnn1-c1ccc(C)cc1	-10	-16	1%	4	-0.3
CN1C(=O)/C(=C/c2cccn2-c2ccc3ccccc3c2)C(=O)NC1=S	-6	-7	13%	3	5.0
Cc1cc(-c2n[nH]c(=S)n2/N=C/c2cc([N+](=O)[O-])ccc2Cl)n[nH]1	6	-9	-7%	·	-7.0
CCOC(=O)C(C)c1c(C)[nH]c(=S)[nH]c1=O (stereo not drawn)	0	-19	·	-11	1.1
O=C(O)c1ccccc1-c1ccccc1C(=O)NNc1ccccc1	-32	-24	?	-1	-9.9
CS(=O)(=O)OCCCCOS(C)(=O)=O	·	·	-7%	-3	-3.9
O=C(COC(=O)/C=C/c1ccccc1)Nc1cc(C(F)(F)F)ccc1N1CCOCC1	-1	-23	-1%	22	-3.1
O=[N+]([O-])c1ccccc1S(=O)(=O)c1ccccc1[N+](=O)[O-]	·	·	·	0	-0.6
Cc1ccc(-n2nc3c(c2NC(=O)c2ccc(Br)o2)CSC3)c(C)c1	7	-50	3%	-14	3.7
CCNC(=O)CC1SC(=Nc2ccc(C)c([N+](=O)[O-])c2)N(C)C1=O (stereo not drawn)	·	·	·	-5	2.9
COC(=O)CSc1nnc(-c2ccccn2)n1Cc1ccco1	1	-4	·	25	1.7

Assay outcomes: PubChem BioAssay, several laboratories
